Screens (PubChem)
Vaccinia mCherry: inhibitors of vaccinia virus infection (mCherry reporter signal); 0.63% of 310,000 active; Potency, µM (highest dose often 36.5 µM), without a hit: at the top dose activity change, negative = inhibition, hits mostly inhibitors; AID 720579; Vaccinia virus mCherry reporter infection, fluorescence; about a quarter of the inactives have no number; active = well fitted inhibition curve with a large enough effect; inconclusive = small, poorly fitted or top-dose-only effect; inactive = no such curve, though single readings can be large or run the other way; tested in A549 cells; note: nearly all actives have a fitted effect of over 35% in size; inactives centre near -10
VACV Venus inh: vaccinia inhibition (Venus reporter). Vaccinia virus Venus reporter expression, fluorescence. Potency, µM (doses to about 36.5 µM), without a hit: top-dose activity change, negative = inhibition, usual class: inhibitors. 0.46% of 330,000 active. AID 720580; active means well fitted inhibition curve with a large enough effect; inconclusive means small, poorly fitted or top-dose-only effect; inactive means no such curve, though single readings can be large or run the other way; tested in A549 cells; note: nearly all actives have a fitted effect of over 30% in size; inactives centre near -10
* = called active by the depositor; i = inactive; ? = inconclusive; / = no result given; & = joins results of further samples; [ ] = remark or other dose. % is set by controls: 0 for no effect and ±100 for the full control effect; potency is the fitted concentration of half-maximal effect. No enrichment for hits. About 0.86% of those tested had a hit in this group.

Preview:
Structure | Vaccinia mCherry | VACV Venus inh
CCOC(=O)c1nnn(-c2nc(OC)nc(N(C)C)n2)c1-c1ccccc1 | i | -9%
N#CC(C#N)=Cc1c[nH]c(=O)c(C#N)c1Nc1ccccc1 | -6% | -2%

This part in full, repeating the preview:
Structure | Vaccinia mCherry | VACV Venus inh
CCOC(=O)c1nnn(-c2nc(OC)nc(N(C)C)n2)c1-c1ccccc1 | i | -9%
N#CC(C#N)=Cc1c[nH]c(=O)c(C#N)c1Nc1ccccc1 | -6% | -2%
Cc1cc(C)cc(OCC(=O)Nc2ccc(F)cc2)c1 | -1% | -18%
CCCCOC(=O)c1ccc(NC(=S)NC(=O)c2c(Cl)cnn2CC)cc1 | -20% | -10%
COC(=O)c1ccc2nc(C)cc(Nc3ccc(O)cc3)c2c1 | -8% | -6%
C[C@H](CO)N1C[C@H](C)[C@H](CN(C)C(=O)c2ccccc2)Oc2cc(Br)ccc2S1(=O)=O | -7% | -13%
O=C(Nc1ccc(Br)cc1)c1cc([N+](=O)[O-])cc([N+](=O)[O-])c1 | -3% | -4%
COc1ccc(C2CC(=O)c3c(ccc4ccccc34)N2)cc1OC (stereo not drawn) | / | 1%
Cc1cc(C)c2oc(-c3ccc(C)c(NC(=S)NC(=O)c4cccs4)c3)nc2c1 | / | -7%
CC[C@H](C)[C@@H](C(=O)N1CCCC1c1nccs1)N(C)C(=O)[C@H](CC(C)C)N(C)C(=O)[C@H](Cc1ccc(OC)cc1)N(C)C(=O)/C=C(\C)OC (stereo partly drawn) | i | 0%
Cc1cc(C(=O)N/N=C/c2ccco2)n[nH]1 | -1% | 1%
O=C(NCCc1ccccc1)c1nnc(CS(=O)(=O)c2ccccc2)o1 | ? | -19%
C=C1c2ccccc2NC(=O)N1c1ccc(OC)cc1 | -20% | -23%
COC(=O)C(C)Sc1nc2c(c(=O)n(C)c(=O)n2C)n1CCC(C)C (stereo not drawn) | -18% | 4%
C=CCNC(=S)Nc1ccc(N(C)C)cc1 | ? | -10%
COc1ccc(C(C(=O)NC(C)(C)C)N(C(=O)CCC(=O)Nc2cc(C)on2)c2cccc(C)c2C)cc1 (stereo not drawn) | -11% | 11%
COc1ccc(-c2nnc(N(C)C(=O)c3cccnc3)s2)cc1 | -21% | -13%
COc1cc2cc(CCCOC(=O)c3ccc(C#N)cc3)oc(=O)c2cc1OC | -9% | -10%
O=C(CSc1ncccc1C(=O)O)c1ccccc1F | i | -10%
c1ccc(NN(Cc2cnccn2)c2ccccc2)cc1 | -5% | -8%
Cc1nc2ccc(NC(=O)COc3ccccc3F)cc2s1 | -4% | 5%
Cc1ccsc1CN(C)Cc1nc(C2CC2)no1 | -5% | -13%
CC1CN(CCOc2ccc(Cl)cc2Cl)CC(C)O1 (stereo not drawn) | 0% | -11%
CC(C)Nc1ccc(C(CC(N)=O)NC(=O)c2ccccc2)cc1[N+](=O)[O-] (stereo not drawn) | -12% | -4%
O=C(CSc1nnc(N2CCOCC2)n1-c1cccc(F)c1)N1CCN(c2ccccn2)CC1 | -8% | 5%
O=C(NC1CCCC1)C(C1CC1)n1c(-c2ccnc3ccccc23)nc2ccccc21 (stereo not drawn) | -11% | -13%
CN(C)CCCn1cnc2c1c(=O)[nH]c(=O)n2Cc1ccccc1 | -3% | -28%
Cc1ccc(N2CC(C(=O)N3CCC(C(=O)Nc4nnc(C(C)C)s4)CC3)CC2=O)cc1 (stereo not drawn) | i | -12%
CCc1noc(C)c1C(=O)OCC(=O)NCCc1ccc(OC)cc1 | -9% | -5%
CCCCN1C2=NCCCN2c2ccccc21 | -12% | -19%

Carrying on:
Structure | Vaccinia mCherry | VACV Venus inh
Cc1ccc(C(=O)CSc2nnnn2C(C)C)c(C)c1 | ? | -19%
Cc1ccccc1NC(=O)CSC1=NCCN1 | -5% | -11%
NCC(=O)c1c[nH]c2ccccc12 | -2% | -9%
O=S(=O)(N(Cc1ccccc1)[C@H](CO)Cc1ccccc1)N(Cc1ccccc1)[C@H](CO)Cc1ccccc1 | -18%&-16% | ?
CC(=O)N(c1nc(CCl)cs1)c1ccc(C)cc1C | i | 2%
NC(=O)c1c(NC(=O)CN2CCN(S(=O)(=O)c3ccccc3)CC2)sc2c1CCC2 | ? | -24%
CC(NC(=O)Cc1ccccc1)c1cc2c(cc1Br)OCCCO2 (stereo not drawn) | -20% | -18%
CN(CC(=O)Nc1cccc(F)c1)CC(=O)Nc1cccc(S(=O)(=O)N(C)c2ccccc2)c1 | ? | ?
Cc1c(C)c2ccc(OS(C)(=O)=O)cc2oc1=O | -2% | -2%
Cc1c(C(=O)N2CCC(C(N)=O)CC2)sc(N)c1C#N | -24% | -3%
CC[C@@H]1Cc2[nH][nH]c(=O)c2[C@H](CC(C)C)O1 | 40%[activator] | 9%
O=C(c1ccc2c(c1)N(Cc1cccc(Cl)c1)C(=O)c1ccccc1S2(=O)=O)N1CCc2ccccc21 | -12% | -5%
O=C(NCCCN1CCCCC1)c1sc2ncccc2c1-n1cccc1 | -10% | -12%
CCOC(=O)C1CCCN(C(=O)COC(=O)C2=COCCO2)C1 (stereo not drawn) | -8% | 5%
Cc1cc(C)n(C2CCCCC2OC(=O)CCc2ccccc2)n1 (stereo not drawn) | -18% | -9%
COc1ccc(S(=O)(=O)N2CCCN(Cc3cccc(F)c3)CC2)cc1 | -13% | -22%
CC(NC(=O)OC1CCCCC1)N1C(=O)C2C3C=CC(C3)C2C1=O (stereo not drawn) | i | -7%
CN(C(=O)c1ccc2c(c1)S(=O)(=O)N=C1CCCCCN12)c1ccccc1 | i | -9%
CC(C(O)c1ccc(O)cc1)N1CCC(Cc2ccccc2)CC1 (stereo not drawn) | ? | -22%&-22%&-21%
O=C(Cc1ccc(Cl)cc1)Nc1nc2ccccc2[nH]1 | -25% | -26%
CCCC(=O)NC(c1ccco1)c1cc([N+](=O)[O-])c2cccnc2c1O (stereo not drawn) | -11% | -5%
Cc1ccccc1NC(=S)NCCc1c[nH]c2ccccc12 | ? | -7%
O=C(Cn1c(=O)n(Cc2nc(-c3ccccc3)no2)c(=O)c2cc3c(cc21)OCO3)Nc1cccc(C(F)(F)F)c1 | -3% | 3%
NC(=O)c1nccc2ccccc12 | -9% | 6%
COc1ccc(CCNC(=O)CCCOc2ccc(C)cc2)cc1OC | -14% | -9%
C[C@H](CO)N1C[C@H](C)[C@@H](CN(C)C(=O)Nc2ccccc2)Oc2ccc(NC(=O)Cn3cnnn3)cc2C1=O | ? | -24%
c1cnc(N2CCN(Cc3ccc4c(c3)OCO4)CC2)cn1 | 0% | -2%
O=C(O)Cc1ccc(O)cc1 | -22% | -12%
CCOc1cc(CN2CCCCCC2)ccc1OC | -13% | -13%
O=C1CCCC(O)=C1N=Nc1ccc2ncsc2c1 | -1% | -17%

4 consecutive compounds from above:
Structure | Vaccinia mCherry | VACV Venus inh
c1cnc(N2CCN(Cc3ccc4c(c3)OCO4)CC2)cn1 | 0% | -2%
O=C(O)Cc1ccc(O)cc1 | -22% | -12%
CCOc1cc(CN2CCCCCC2)ccc1OC | -13% | -13%
O=C1CCCC(O)=C1N=Nc1ccc2ncsc2c1 | -1% | -17%

Next records:
Structure | Vaccinia mCherry | VACV Venus inh
CO/N=C/C(=N\Nc1ccc(OC)cc1)C(=O)c1ccc(OC)cc1 | / | -14%
Cc1ccnc(NC(=O)c2cccc(NC(=O)c3ccc(Cl)c(Cl)c3)c2)c1 | i | -13%
CCS(=O)(=O)c1ncc(N(Cc2ccco2)Cc2ccccc2F)c(C(=O)Nc2cccc(Cl)c2)n1 | -17% | -10%
CC1(C)CC(=O)C2=C(C1)C(c1cn(-c3ccccc3)nc1-c1ccccc1)C(C#N)=C(N)O2 (stereo not drawn) | -20% | -12%
COCCNC(=O)c1sc2ncn(CC(=O)N3CCCCC3)c(=O)c2c1C | -13% | -5%
CC(=O)Nc1ccc(NC(=O)C2Cc3ccccc3N2C(=O)c2ccccc2)cc1 (stereo not drawn) | 0% | 2%
COc1ccccc1NS(=O)(=O)c1ccc(S(=O)(=O)N2CCOCC2)cc1 | 3% | -5%
C#CCOc1nc(Nc2cccc([N+](=O)[O-])c2)nc(OCC#C)n1 | -27% | -17%
COc1ccc(OCCN2C(=O)NC(C)(c3ccc(C)cc3)C2=O)cc1 (stereo not drawn) | -1% | -13%
Cc1ccc(CNc2ccc(N3CCOCC3)cc2)cc1 | i | 21%
C=CCn1c(COc2cccc3ccc(C)nc23)nnc1SCC(=O)OC | 3% | -2%
COC(=O)c1ccccc1SC(CC(=O)c1ccccc1)c1ccc(F)cc1 (stereo not drawn) | -12% | -8%
Cc1cccc(N(CC(=O)N(C)Cc2ccccc2)S(=O)(=O)c2ccccc2)c1C | -18% | -9%
O=C(NCc1ccco1)/C(=C\c1cccs1)NC(=O)c1cccs1 | -5% | 4%
Cc1ccc(NNC(=O)c2c(F)cccc2Cl)cc1C | ? | 1%
Cc1cccc(/C(N)=N/OC(=O)CCC2CCCCC2)c1 | -12% | -8%
Cc1ccc2c(=O)cc(C(=O)Nc3cccc(C(F)(F)F)c3)oc2c1C | -1% | -2%
C[C@@H]1O[C@@H](O[C@H]2[C@H](Oc3cc(O)c4c(c3)OC(c3ccc(O)cc3)CC4=O)O[C@H](CO)[C@@H](O)[C@@H]2O)[C@H](O)[C@H](O)[C@H]1O (stereo partly drawn) | i | -17%
Cc1ccc(NC(=O)C(C)OC(=O)c2ccc(Cl)nc2)cc1S(=O)(=O)N1CCOCC1 (stereo not drawn) | i | -5%
Cc1ccc2nc(-c3ccc(NC(=O)COC(=O)c4cncc(Br)c4)cc3)sc2c1 | -13% | -1%
Nc1ccccc1SCC(=O)Nc1nccs1 | -15% | -9%
CC1=C(C(=O)OCC2CCCCC2)C(c2ccc(Cl)cc2Cl)CC(=O)N1 (stereo not drawn) | 7% | -1%
Clc1nc2ccccc2nc1-c1ccccc1 | i | -11%
COc1ccc(Cl)cc1NC(=O)c1cccc(-n2cnnn2)c1 | -17% | -19%
CC/C(O)=C1\C(=O)CCCC1=NCc1nc2ccccc2[nH]1 | -2% | -10%
O=C(Nc1ccc(F)c(F)c1)c1ccccc1-c1ccccc1 | -10% | 0%
N#Cc1cccc(-c2ccc3ncnc(NCc4cccnc4)c3c2)c1 | i | 17%
O=C(Oc1ccc(Br)cc1C(=S)N1CCCCC1)c1cc([N+](=O)[O-])cc([N+](=O)[O-])c1 | -15%[1.46 µM] | -29%
COC(=O)c1sccc1NC(=O)c1cc(OC)c(OC)c(OC)c1 | i | -8%
CCOC(=O)c1ccc(S(=O)(=O)N2CCN(C(=O)c3cc(=O)c4ccccc4o3)CC2)cc1 | i | -9%

Further results
Structure | Vaccinia mCherry | VACV Venus inh
CC(NC(=O)C(NC(=O)C1CCCN1C(=O)OC(C)(C)C)C(C)C)C(N)=O (stereo not drawn) | -15% | -8%
COc1cccc(C(=O)Nc2sc3c(c2C#N)CCN(C(C)=O)C3)c1 | -13% | ?
Cc1ccccc1CC(=O)NC1CCCc2ccccc21 (stereo not drawn) | -13% | -7%
CC(C)C(=O)N1CCN(c2ccc(NC(=S)NC(=O)c3cc4ccccc4o3)cc2)CC1 | -10% | -9%
COc1ccc(C(=O)C[n+]2cn(C(F)F)c3ccccc32)c(F)c1 | -11% | -16%
Cc1ccc(CNC(=O)CCn2cc(-c3ccc(F)cc3)nc2-c2ccncc2)cc1 | i | -18%
CC(C)NC(=O)c1cc2c(C(F)(F)F)nn(C)c2s1 | / | -6%
O=S(=O)(NCC(c1ccco1)N1CCc2ccccc2C1)c1ccc(Br)cc1 (stereo not drawn) | ? | -1%
O=C(NCc1ccc(F)cc1)C1CCN(c2ncnc3c2nc2n3CCCCC2)CC1 | 0% | -3%
O=C(OCC(=O)N1CCN(S(=O)(=O)c2ccccc2)CC1)c1ccc([N+](=O)[O-])o1 | -19% | 11%
Cc1cc(C)c(-c2cc(NC(=O)CSc3nncn3C)n(-c3ccccc3)n2)cc1C | -24%[1.46 µM] | ?
O=C(CSCc1ccccc1Cl)Nc1ccc(C(=O)O)cc1 | i | -14%
O=C1[C@@H]2CSC(c3ccc(F)cc3)N2C(=O)N1c1ccc(Cl)cc1 (stereo partly drawn) | -5% | -6%
c1cc(-c2ccsc2)n2cnnc2c1 | 4% | 1%
Cc1onc(-c2c(Cl)cccc2Cl)c1C(=O)NC(C)(C)CO | 0% | -15%
Cc1ccc2oc(-c3ccc(Cl)c(NC(=O)c4cc5ccccc5o4)c3)nc2c1 | -4% | 3%
COCCN1CC(=O)N2C(c3cccc(OC)c3)c3[nH]c4ccccc4c3C[C@H]2C1=O (stereo partly drawn) | -12% | -4%
O=[N+]([O-])c1cc([N+](=O)[O-])c2cc3ccccc3nc2c1 | ? | -6%
CCCNC(=O)c1cc(C2CCCN(C(=O)c3ccc4ccccc4c3)C2)on1 (stereo not drawn) | -12% | -23%
CC(C)Oc1cc(F)ccc1-c1cc(C(=O)Nc2cccc(C(F)(F)F)c2)[nH]n1 | 11% | -24%
Cc1ccc(-n2ncc3c(N4CCN(c5ccccc5)CC4)ncnc32)cc1C | -1% | -8%
O=C(c1ccc([N+](=O)[O-])cc1)N(Cc1ccco1)c1ccccn1 | -13% | 4%
